High-throughput results (PubChem)
RE007 growth inh: less growth of the S. pombe RE007 Vpr strain | 360,000 compounds, 0.21% hits | S. pombe RE007 Vpr strain, BacTiter-Glo ATP luminescence, 24 h; control for the full effect not named in the record | AID 651644 | Potency, µM (series often up to 92.2 µM), without a hit: at the top dose activity change, negative = less growth; active = well fitted falling curve with a large enough effect; inconclusive = small, poorly fitted or top-dose-only effect; inactive = no such curve, though single readings can be large or run the other way;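 further: nearly all actives have a fitted effect of over 50% in size; the assay follows cell death caused by Vpr and the record does not say whether a fall means rescue or toxicity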
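Fission yeast RE007 carrying one integrated HIV-1 vpr copy, seeded at OD 0.01 in PMG+AL medium with 23 nL pinned compound. Grown 24 h at 30 degrees; viability read by BacTiter-Glo luminescence after 5 min.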
StopGo reporter: FMDV 2A StopGo reporter, luciferase signal; human cells with a luciferase reporter of 2A StopGo recoding; control for the full effect not named in the record; Potency, µM (doses to about 57.9 µM), inactives show at the highest dose signal change, negative = less light; 410,000 compounds, 1.2% hits; AID 1159524; active = well fitted falling curve with a large enough effect; inconclusive = small, poorly fitted or top-dose-only effect; inactive = no such curve, though single readings can be large or run the other way; tested in HEK293T cells; further: nearly all actives have a fitted effect of over 45% in size; luciferase light after 4 h
The depositor's hits bear a star; [ ] = dose if it differs, or a comment. On the % scale 0 is the no-effect control and ±100 the full control effect; potency means the concentration at half of the fitted maximal effect. This is a subset (hit frequency here may not be typical).

Results for CO[C@@H]1CN(C)C(=O)c2ccc(NC(=O)C3CCCC3)cc2OC[C@@H](C)N(Cc2ccc(F)cc2)C[C@H]1C ?
RE007 growth inh: -1%; StopGo reporter: -14%

How did CCCCN(C=O)c1c(CC)nc2ccc(C(=O)NCCc3c[nH]c4ccccc34)cn12 do in these assays?
RE007 growth inh: 7%; StopGo reporter: -19%

What do the screens show for `OCCCNc1ncnc2c1ncn2[C@H]1CN(Cc2cccs2)C[C@@H](CO)O1`?
RE007 growth inh: -11%; StopGo reporter: -10%

How did CCOC(=O)N(C)C[C@@H]1OCc2cnnn2CCCC(=O)N([C@H](C)CO)C[C@H]1C do in these assays?
RE007 growth inh: 7%; StopGo reporter: -22%

What do the screens show for `CC1(C(=O)NCc2cccs2)CCN1C(=O)Cc1ccc(Cl)cc1Cl` (configuration not stated)?
RE007 growth inh: -7%; StopGo reporter: -15%

Results for O=C(NCc1nnnn1-c1ccc(F)cc1)c1ccc(S(=O)(=O)N2CCOCC2)cc1 ?
RE007 growth inh: 13%; StopGo reporter: 0%

What do the screens show for `Cc1ccc2nc(-c3ccc(F)cc3)c(Cc3ccccc3C(F)(F)F)n2c1`?
RE007 growth inh: -27%; StopGo reporter: 62%[activator]

What do the screens show for `Nc1ccnc(=O)[nH]1`?
RE007 growth inh: -15%[18.4 µM]; StopGo reporter: -25%

How did COC(=O)[C@@]1(Sc2ccc(C)cc2)CC(=O)N(c2cccc(SC)c2)[C@@H]1c1ccccc1 do in these assays?
RE007 growth inh: 37%; StopGo reporter: -29%

Results for Cc1cc(C(=O)N2CCC(C)(C(=O)NS(=O)(=O)C3CC3)C2)n(C(C)(C)C)n1 (configuration not stated) ?
RE007 growth inh: 2%[18.4 µM]; StopGo reporter: -21%

What do the screens show for `O=c1[nH][nH]c2c1[C@H](CCc1cccc(Cl)c1)O[C@H](CCc1ccccc1)C2`?
RE007 growth inh: -5%; StopGo reporter: -1%

Results for Cc1ccc(C)c(C(=O)COC(=O)c2cc(S(=O)(=O)N3CCOCC3)ccc2F)c1 ?
RE007 growth inh: 87%; StopGo reporter: -17%

Results for COc1ccc(S(=O)(=O)N(C)C[C@H]2Oc3cc(Br)ccc3S(=O)(=O)N([C@H](C)CO)C[C@H]2C)cc1 ?
RE007 growth inh: 8%; StopGo reporter: 40%[activator]

Results for CCCS(=O)(=O)NC(=O)C1(C)CCN(C(=O)c2ccc(F)c(C)c2)C1 (configuration not stated) ?
RE007 growth inh: 15%; StopGo reporter: -11%

What do the screens show for `C=Cc1ccc(CC2(C)C(=O)Nc3ccc(-c4cccnc4)cc32)cc1` (configuration not stated)?
RE007 growth inh: -14%; StopGo reporter: inconclusive

What do the screens show for `COCCNc1nc2cc(-c3ccc(F)cc3)sc2c(=O)n1C`?
RE007 growth inh: 1%; StopGo reporter: -4%

Results for CCc1nc2c(OCC3COc4ccccc4O3)cccn2c1N(C)C(=O)c1cccc(OC)c1 (configuration not stated) ?
RE007 growth inh: -17%; StopGo reporter: -27%

Results for C=CC[C@]12C=C(OC)C(=O)C(OC)=C1O[C@@H](c1ccc3c(c1)OCO3)[C@H]2C ?
RE007 growth inh: -24%; StopGo reporter: -18%

What do the screens show for `C=Cc1ccc(CC2(C)C(=O)Nc3ccc(Cl)cc32)cc1` (configuration not stated)?
RE007 growth inh: 13%; StopGo reporter: -11%

What do the screens show for `COc1ccc(Cl)cc1CNC[C@H]1O[C@@H](n2cnc3c(=O)[nH]c(N)nc32)[C@H](O)[C@@H]1O`?
RE007 growth inh: -11%; StopGo reporter: -6%

How did C[C@@H]1CN([C@H](C)CO)C(=O)Cc2cc(NC(=O)CCC(F)(F)F)ccc2O[C@@H]1CN(C)S(=O)(=O)c1ccccc1 do in these assays?
RE007 growth inh: 0%; StopGo reporter: -1%

What do the screens show for `CC(NC(=O)CSc1ccc(S(=O)(=O)N2CCOCC2)cn1)c1ccc(Cl)cc1Cl` (configuration not stated)?
RE007 growth inh: -2%; StopGo reporter: -21%

What do the screens show for `CCOC(=O)[C@@H](NC(=O)/C=C/[C@H]1O[C@@H](n2ccc(=O)[nH]c2=O)[C@H](O)[C@@H]1O)C(C)C`?
RE007 growth inh: 6%; StopGo reporter: -4%

Results for Cc1nccn1-c1ccc(NC(=O)[C@H]2O[C@@H](n3ccc(N)nc3=O)[C@H](O)[C@@H]2O)cc1 ?
RE007 growth inh: -6%; StopGo reporter: -19%

How did CCCC(=O)N1CCCC1(C)C(=O)Nc1ccc(C)c(C)c1 (configuration not stated) do in these assays?
RE007 growth inh: 6%[18.4 µM]; StopGo reporter: -11%

Results for NC(=O)c1ccc(Nc2nc(C(N)c3ccccc3Cl)cs2)cc1 (configuration not stated) ?
RE007 growth inh: 0%; StopGo reporter: -19%

Results for CCCCc1c(-c2ccccc2OC)ncn1CCc1cccc(F)c1 ?
RE007 growth inh: -26%; StopGo reporter: inconclusive

Results for CCc1nc2ccc(C(=O)N(C)Cc3ccco3)cn2c1N(CC)Cc1cccc(Br)c1 ?
RE007 growth inh: -24%; StopGo reporter: 0%

What do the screens show for `Cn1c(NCC2CCCCC2)nc2cc(-c3ccsc3)sc2c1=O`?
RE007 growth inh: -8%; StopGo reporter: -5%

Results for COC(=O)C1(C(=O)OC)C2C(=O)C3C(C21)C3(C(=O)OC(C)(C)C)C(=O)OC(C)(C)C (configuration not stated) ?
RE007 growth inh: -14%; StopGo reporter: 59%[activator]

Overlap with the part before: two compounds, then new ones.
What do the screens show for `Cn1c(NCC2CCCCC2)nc2cc(-c3ccsc3)sc2c1=O`?
RE007 growth inh: -8%; StopGo reporter: -5%

Results for COC(=O)C1(C(=O)OC)C2C(=O)C3C(C21)C3(C(=O)OC(C)(C)C)C(=O)OC(C)(C)C (configuration not stated) ?
RE007 growth inh: -14%; StopGo reporter: 59%[activator]

What do the screens show for `CCCCCC(=O)N1C[C@H](n2cc(-c3ccc(F)cc3)nn2)[C@@H](O)C[C@@H]1c1ccc(C)cc1`?
RE007 growth inh: 2%; StopGo reporter: -21%

How did COC(=O)[C@@]12C[C@@H](CC(=O)NCc3cccc(C(F)(F)F)c3)C(=O)N(Cc3ccc4c(c3)OCO4)C1=CCC(C)(C)C2 do in these assays?
RE007 growth inh: 11%; StopGo reporter: -27%

What do the screens show for `O=C1CCC(C(=O)N(CCO)Cc2ccccc2)CN1CCc1cccc(F)c1` (configuration not stated)?
RE007 growth inh: 15%; StopGo reporter: -12%

How did CCOC(=O)c1c(C)[nH]c(C(=O)OC(C)C(=O)NC2(C#N)CCCCC2)c1C (configuration not stated) do in these assays?
RE007 growth inh: 10%; StopGo reporter: inconclusive

What do the screens show for `CCNC(=O)C1(C)CCN(C(=O)c2cc(F)cc(F)c2)C1` (configuration not stated)?
RE007 growth inh: 3%; StopGo reporter: -10%

How did CC(=O)c1cccc(Nc2ccc(Br)cc2)c1 do in these assays?
RE007 growth inh: -3%; StopGo reporter: 43%[activator]

What do the screens show for `O=C(NC1CCCC1)C1c2ccccc2OCC(=O)N1Cc1ccccn1` (configuration not stated)?
RE007 growth inh: -11%; StopGo reporter: -19%

What do the screens show for `S=c1[nH]nc(NC2CCCCC2)s1`?
RE007 growth inh: 11%; StopGo reporter: -14%

How did C#CCN1N=C(c2ccc(C)cc2)CSC1=O do in these assays?
RE007 growth inh: 21%; StopGo reporter: 0%

How did O=C(CC1CC1)N[C@@H]1CC[C@@H](CCNS(=O)(=O)c2ccc(F)cc2)O[C@@H]1CO do in these assays?
RE007 growth inh: 3%; StopGo reporter: -13%

Results for C[C@@H]1O[C@H](C2CCCC2)Cc2[nH]c(=S)[nH]c(=O)c21 ?
RE007 growth inh: -9%; StopGo reporter: -29%

What do the screens show for `CNc1cncc(-c2cnn(CC(C)C)c2)n1`?
RE007 growth inh: 1%; StopGo reporter: 28%

How did COC(=O)c1ccc(NC(=O)CN2CCC(NC(=O)c3ccccc3F)CC2)cc1 do in these assays?
RE007 growth inh: -6%; StopGo reporter: -12%

Results for CC(=O)Nc1ccc(-c2ccnc3c2CC(C(=O)Nc2cccc(OC(F)(F)F)c2)O3)cc1 (configuration not stated) ?
RE007 growth inh: 13%; StopGo reporter: -5%

How did O=C(O)c1cccc(O)c1O do in these assays?
RE007 growth inh: 8%; StopGo reporter: 0%

A draw from above in order of length of the SMILES, largest number first:
What do the screens show for `O=c1[nH][nH]c2c1[C@H](CCc1cccc(Cl)c1)O[C@H](CCc1ccccc1)C2`?
RE007 growth inh: -5%; StopGo reporter: -1%

Results for O=C(NCc1nnnn1-c1ccc(F)cc1)c1ccc(S(=O)(=O)N2CCOCC2)cc1 ?
RE007 growth inh: 13%; StopGo reporter: 0%

What do the screens show for `CCNC(=O)C1(C)CCN(C(=O)c2cc(F)cc(F)c2)C1` (configuration not stated)?
RE007 growth inh: 3%; StopGo reporter: -10%

How did CCCC(=O)N1CCCC1(C)C(=O)Nc1ccc(C)c(C)c1 (configuration not stated) do in these assays?
RE007 growth inh: 6%[18.4 µM]; StopGo reporter: -11%

What do the screens show for `CNc1cncc(-c2cnn(CC(C)C)c2)n1`?
RE007 growth inh: 1%; StopGo reporter: 28%

Structures shown so far that have an aryl thioether with sulfur outside any ring:
How did COC(=O)[C@@]1(Sc2ccc(C)cc2)CC(=O)N(c2cccc(SC)c2)[C@@H]1c1ccccc1 do in these assays?
RE007 growth inh: 37%; StopGo reporter: -29%

What do the screens show for `CC(NC(=O)CSc1ccc(S(=O)(=O)N2CCOCC2)cn1)c1ccc(Cl)cc1Cl` (configuration not stated)?
RE007 growth inh: -2%; StopGo reporter: -21%

Other results.
What do the screens show for `Cc1ccc(S(=O)(=O)Nc2ccc3c(c2)C(=O)c2ccccc2-3)cc1`?
RE007 growth inh: 11%; StopGo reporter: 0%

Results for C[C@@H]1CN([C@H](C)CO)C(=O)CCCn2nncc2CO[C@H]1CN(C)Cc1cccnc1 ?
RE007 growth inh: 12%; StopGo reporter: 8%

Results for COc1ccc(/C=C2\SC(=S)N(CCCC(=O)NC3CCCC3)C2=O)cc1OC ?
RE007 growth inh: 4%; StopGo reporter: -55%

How did COc1ccc(C(C(=O)NC(C)(C)C)n2c(-c3ccc(-c4ccccc4)cc3)nc3ccccc32)cc1 (configuration not stated) do in these assays?
RE007 growth inh: 2%; StopGo reporter: 21%

Results for Cc1cc(C)cc(CC(=O)N2CCC2(C)C(=O)NS(=O)(=O)c2ccc(Cl)s2)c1 (configuration not stated) ?
RE007 growth inh: 17%[18.4 µM]; StopGo reporter: -5%

What do the screens show for `CN(C)CCCNc1nc2cc(-c3cnn(C)c3)sc2c(=O)n1C`?
RE007 growth inh: 12%; StopGo reporter: -11%

What do the screens show for `Cc1ccc(C(O)c2ncc(-c3ccccc3Cl)[nH]2)cc1F` (configuration not stated)?
RE007 growth inh: inconclusive; StopGo reporter: 58%[activator]

Results for Cc1nc(-c2ccc(Cl)cc2)sc1C1(C)CC(c2ccccc2Br)=NO1 (configuration not stated) ?
RE007 growth inh: 4%; StopGo reporter: 36%[activator]

How did CCc1nc2c(OCc3cccc(OC)c3)cccn2c1N(C)C(=O)C(C)C do in these assays?
RE007 growth inh: 15%; StopGo reporter: -17%

What do the screens show for `COc1ccc(OCCN2CCC(C(=O)NC(c3ccc(Cl)cc3)c3cccnc3)CC2)cc1` (configuration not stated)?
RE007 growth inh: 5%; StopGo reporter: -14%

Results for Cc1cccc(S(=O)(=O)N(C)C[C@H]2OCc3cn(nn3)CCCC(=O)N([C@H](C)CO)C[C@@H]2C)c1 ?
RE007 growth inh: 6%; StopGo reporter: 9%

Results for O=C(O)C1CCN(S(=O)(=O)c2ccc3[nH]ccc3c2)CC1 ?
RE007 growth inh: -2%; StopGo reporter: 0%

How did O=C(NCc1ccccc1)C1C(=O)Nc2ccccc2C(=O)N1Cc1ccccc1 (configuration not stated) do in these assays?
RE007 growth inh: 10%; StopGo reporter: 19%

Results for Cc1cccnc1C(NC(=O)C1CCN(Cc2ccccc2)CC1)c1ccc(F)cc1 (configuration not stated) ?
RE007 growth inh: 0%[18.4 µM]; StopGo reporter: -10%

What do the screens show for `O=S(=O)(Nc1ccc(C(O)(C(F)(F)F)C(F)(F)F)cc1)c1ccc(Cl)c2nonc12`?
RE007 growth inh: 7%; StopGo reporter: 35µM*

What do the screens show for `CC(=O)CC1N(S(=O)(=O)c2ccc(C)cc2)c2ccccc2N1S(=O)(=O)c1ccc(C)cc1`?
RE007 growth inh: 0%; StopGo reporter: -10%

What do the screens show for `COC(=O)C[C@H]1C=C[C@H](NC(=O)c2ccc(F)cc2)[C@@H](CO)O1`?
RE007 growth inh: 13%; StopGo reporter: -8%

Results for Cn1c(=O)c2c(-c3ccccc3)n(-c3ccc(N)cc3)cc2n(C)c1=O ?
RE007 growth inh: -7%; StopGo reporter: -19%

What do the screens show for `O=C(Nc1c(-c2ccccc2)[nH][nH]c1=O)c1ccco1`?
RE007 growth inh: 29%; StopGo reporter: -13%

What do the screens show for `CCCCCCn1c(=O)n2n(c1=O)[C@@H]1CN(S(=O)(=O)c3ccc(C)cc3)C[C@]1(O)[C@@H](OC(=O)NC1CC1)C2`?
RE007 growth inh: -9%; StopGo reporter: -14%

What do the screens show for `O=C1NC[C@H](Cc2ccccc2)N(C[C@@H]2CCCN2C[C@H](Cc2ccccc2)N2C[C@H](Cc3ccccc3)N(CCc3ccccc3)C(=O)C2=O)C1=O`?
RE007 growth inh: -9%; StopGo reporter: 40%[activator]
